# BJeLR viability = BJeLR cell viability loss; BJeLR (HRASV12) viability, CellTiter-Glo ATP luminescence, 48 h; reference of the scale not given here; inhibition, % (test concentration not listed); 0.17% of 300,000 active;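 active = replicate mean above 50%; inconclusive = above 50% but judged a plate artefact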;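 note: 50 nL library stock added to about 25 µL; numbers are from one replicate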
# PrP 5UTR inh = suppresses PrP 5' UTR mRNA reporter expression. cell-based PrP 5' UTR mRNA reporter, plate reader. inhibition, % (no concentration beside the values). 0.35% of 340,000 active;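 active = every replicate at 50% or more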;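 note: 0 = median of the neutral control wells; tested in H4 reporter cells; numbers are from one replicate; inactives centre near -14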
# Mtb hypoxia rep = reduces hypoxia-regulated biosensor signal in M. tuberculosis | M. tuberculosis hypoxia-regulated fluorescent reporter, fluorescence | fluorescence inhibition, % (concentration not given with the values) | 0.1% of 300,000 active;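 active = 35 to 45% if threefold the growth effect, above 45% if 1.5-fold the growth effect; inactive = the rest, general growth blockers included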;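 note: wells of about 50 µL received 100 nL stock; 0% = vehicle wells and 100% = reference inhibitor wells; whole bacteria with a GFP reporter of the hypoxia response; strong numbers were not always called active; many hits fall short of the cut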
# Autofluor counter = counter-screen for toxin protease inhibitors: compound fluorescence. compound autofluorescence counterscreen, microsphere flow cytometry; hits give high values. fluorescence intensity (no concentration beside the values). 3.1% of 360,000 active. AID 624483;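 active = at least 3 SD above the mean of all compounds, about 16000 in these data; inconclusive = too few beads counted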;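 note: 100 nL of 1 mM stock went into each well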
# ugtP null kill = compounds lethal to S. aureus RN4220 ugtP deletion mutant. OD600 growth, 16 h; some inactives read as strong as hits. growth inhibition, % (concentration not given with the values). 0.54% of 330,000 active. AID 1259309;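 active = z-score under -3 and OD600 up to 0.15 on both plates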;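 note: plate controls were untreated wells for no effect and antibiotic for full effect; wells of about 80 µL received 100 nL stock; the first replicate is given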
# Sa RN4220 lethal = kills Staphylococcus aureus RN4220; inhibition, % (test concentration not listed); S. aureus RN4220 growth, OD600, 16 h; 0.33% of 330,000 active;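 active = z-score of -3 or lower and OD600 up to 0.18 on both plates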;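 note: plate controls were untreated cells for no effect and reference antibiotic for full effect; stock transfer was 100 nL into about 80 µL; one replicate is shown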
# Mtb hypoxia rep growth = second read-out of Mtb hypoxia rep, no call of its own (marks repeat the call); growth inhibition, %; measured here: M. tuberculosis growth (absorbance);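 0% = vehicle and 100% = reference antibiotic; read after six days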
# * = called active by the depositor; ? = inconclusive; / = not tested or not shown; & = joins results of further samples.
mol,BJeLR viability,PrP 5UTR inh,Mtb hypoxia rep,Mtb hypoxia rep growth,Autofluor counter,ugtP null kill,Sa RN4220 lethal
CCC(Sc1nccn1C)C(=O)Nc1nnc(C)s1 (stereo not given),-7,-20,3,5,5860,8,2.5
O=C(c1ccco1)N1CCN(c2nc3ccsc3c(=O)s2)CC1,-7,-24,/,/,5492,-2,0.3
CCCc1cc(=O)n2[nH]c(-c3ccc(OC)cc3)nc2n1,8,-10,5,13,2800,1,-0.3
CCOc1ccc(-c2ccc(SCc3ccccn3)nn2)cc1,-1,-10,10,-1,4456,7,27
Cc1c(C(=O)N2CCN(c3ccccc3)CC2)oc2c1C(=O)CC(C)(C)C2,-1,2,3,7,3713,7,4.4
CCOC(=O)N1CCN(C(=O)CCn2c(=O)[nH]c3ccsc3c2=O)CC1,4,-7,0,5,5138,10,3.6
CN(C)CCCNC(=O)/C(=N\O)c1ccccc1,-2,-32,/,/,3518,/,/
COc1ccc(C(=O)C2CC[C@](C)(C(=O)O)C2(C)C)cc1 (stereo not given in full),/,/,6,3,/,0,3.7
CC1(C)CC(=O)c2sc(NC(=O)CN3CCOCC3)nc2C1,5,8,/,/,4872,-2,4.7
CCc1ccc(S(=O)(=O)Nc2ccc(-c3nc4cccnc4s3)cc2)s1,-2,-55,4,8,5960,28,-3.2
CN1CCCN(C(=O)c2ccc(Cl)c(S(=O)(=O)N(C)c3ccccc3)c2)CC1,-2,-13,4,-1,4609,4,3.1
COc1ccc(C(=O)/C(=C\N(C)C)n2nc(C)cc2C)cc1,-14,-15,-1,0,4681,4,2.5
CC(=O)Nc1cc(-c2nc3ccccc3o2)ccc1Cl,9,-30,10,0,2905,-13,4.7
O=C1[C@H]2[C@@H](c3ccc(Cl)cc3)N3C(=O)N(c4cccc(F)c4)C(=O)[C@@]3(Cc3ccc(Cl)cc3)[C@H]2C(=O)N1C1CCCCC1,-2,-17,/,/,3632,/,/
COc1ccc(F)cc1S(=O)(=O)N1CCCCC1,1,-13,20,9,5464,-2,0.3
COc1ccc(CCN2CC(C(=O)O)CC2=O)cc1 (stereo not given),-2,-16,-12,-5,11146,-2,0.6
O=[N+]([O-])c1ccc(N2CCOCC2)cc1NCc1ccccc1,4,-18,/,/,2776,0,-1.5
Cc1cc(C)cc(SCc2noc(C(=O)NCc3ccccc3)c2C(=O)NCc2ccccc2)c1,-8,-13,0,5,2928,-5,7.7
CC1CCC2(CC1)NC(=O)N(CC(=O)Nc1nc(-c3ccc(F)cc3)cs1)C2=O (stereo not given),/,-18,/,/,2710,-1,-16
Cc1cc(NC(=O)CSc2nnc(C3CC3)n2-c2ccccc2)no1,17,-7,-2,-12,2499,3,11
Cc1cc(Cl)ccc1NC(=O)C1CCN(S(C)(=O)=O)CC1,16,-8,4,-2,4393,2,4.7
Cn1c(=O)[nH]c(=O)c2c1nc(NCc1ccco1)n2CCCc1ccccc1,1,-8&-19,-4,0,2991,5,14
Cc1cccc(NC(=O)C2CCCN(S(=O)(=O)c3cccc4nsnc34)C2)c1 (stereo not given),-1,-28,-2,7,9360,-4,1.3
CC1SC2(NC1=O)C1CC3CC(C1)CC2C3 (stereo not given),-13,5,7,-2,3434,3,8.6
COc1ccc(C(CC(=O)N2CCCCC2)c2c(OC)cc(OC)c3ccc(=O)oc23)cc1 (stereo not given),8,-6,0,0,3898,6,7.1
CCc1noc(C)c1C(=O)OCC(=O)Nc1ncc(Cl)cc1Cl,5,-20,/,/,5076,/,/
O=C(/C=C/c1ccc(Cl)cc1Cl)Nc1ccc(CN2CCOCC2)cc1,2,-19,-2,7,2362,-9,-3.9
COc1cc(C(=O)N2CCN(C(=O)C3CC3)CC2)cc(OC)c1OC,-5,-2,/,/,4878,-9,-0.7
CCOc1c(CNCCN2CCOCC2)cccc1OC,4,-7,-6,-6,15377,1,2.0
CCOC(=O)C(C(=O)OCC)C(c1ccccc1)N1CCN(c2ccccc2)CC1 (stereo not given),/,-5,2,1,3825,0,2.4
CC(=O)c1ccc(N2CCN(C(=O)Nc3ccc(C)cc3)CC2)cc1,1,-26,13,10,4463,11,6.7
CCOc1cc(C(=O)Nc2ccc(S(=O)(=O)Nc3onc(C)c3C)cc2)cc(OCC)c1OCC,/,-28,25,27,3582,4,0.4
CCCCN(CC)CCCNC(=O)c1csc2c1CCCCC2,7,-31,6,4,3747,8,5.3
O=C(/C=C/c1ccccc1Cl)c1ccc(O)cc1,8,-30,11,17,3461,51,4.8
COc1cccc(C(=O)Nc2c3c(nc4c2CCC4)CCCC3)c1,-6,-12,10,0,2308,2,2.1
C=CCn1c(O)c(/C=N/N2CCCCC2)c(=O)[nH]c1=O,-11,-12,3,4,3695,-2,2.2

# Looked up by structure from the entries so far:
mol,BJeLR viability,PrP 5UTR inh,Mtb hypoxia rep,Mtb hypoxia rep growth,Autofluor counter,ugtP null kill,Sa RN4220 lethal
O=C(/C=C/c1ccc(Cl)cc1Cl)Nc1ccc(CN2CCOCC2)cc1,2,-19,-2,7,2362,-9,-3.9
CCOc1cc(C(=O)Nc2ccc(S(=O)(=O)Nc3onc(C)c3C)cc2)cc(OCC)c1OCC,/,-28,25,27,3582,4,0.4
CCOc1c(CNCCN2CCOCC2)cccc1OC,4,-7,-6,-6,15377,1,2.0
O=C(/C=C/c1ccccc1Cl)c1ccc(O)cc1,8,-30,11,17,3461,51,4.8

# (continued)
mol,BJeLR viability,PrP 5UTR inh,Mtb hypoxia rep,Mtb hypoxia rep growth,Autofluor counter,ugtP null kill,Sa RN4220 lethal
COC(=O)c1ccc(NC(=O)Nc2ccc(F)c(Cl)c2)cc1,-9,-33,1,0,14047,-40,4.6
CCN1C(=O)CC(N2CCC(C(=O)N3CCOCC3)CC2)C1=O (stereo not given),-2,-15,/,/,5272,-3,2.5
CCCSC1=C(C#N)C(c2cccnc2)C(C(=O)OCC)=C(c2ccccc2)N1 (stereo not given),-5,-6,/,/,2744,2,-1.6
COc1cc2oc(=O)cc(-c3ccc(-c4ccc(F)c(Cl)c4)cc3)c2c(OC)c1OC,/,-23,0,12,3416,43,7.3
CCC(=O)Nc1cc(C(=O)O)ccc1Sc1ccc(Cl)cc1,-17,-11,-5,-4,3268,4,2.4
Cc1ccc2cc3cc(C(=O)N(CC(=O)NC4CCCC4)c4cccc(C)c4C)sc3nc2c1,-9,3,-7,6,5927,33,34
COc1ccc2c(c1)[nH]c1c(=O)n(CCC3=CCCCC3)cnc12,8,-13,-26,-10,2410,-7,4.3
CC(C)N(Cc1nc(-c2ccc(Cl)cc2)no1)C(=O)/C=C/c1ccccc1,-8,-16,14,1,6652,11,-3.3
CCOC(=O)c1nnn(-c2nonc2NC(C)=O)c1C,-4,4,/,/,3609,-9,-5.0
COc1ccccc1OCCn1cc(/C=N/n2cnnc2)c2ccccc21,8,-37,/,/,7660,/,/
COc1ccc(-c2c(C)cc3oc(=O)cc(-c4ccccc4)c3c2C)cc1,/,0,/,/,3657,14,-0.1
Cn1c(OCc2ccc3c(c2)OCO3)nc2c1c(=O)n(Cc1cccc(Cl)c1)c(=O)n2C,4,-20,/,/,2899,0,-1.6
O=C(Cn1cnc2ccccc2c1=O)NNC(=O)c1ccccc1F,/,-3,2,4,3910,0,0.6
O=C(CSc1cccc2cccnc12)OCC(=O)c1ccc(Br)cc1,-9,-20,3,6,2486,-2,6.3
Cn1nnnc1SCC(=O)Nc1ncc(Cl)cc1Cl,-11,-15,5,-2,5964,1,3.3
COc1ccc(C(=O)Nc2ccnn2C2CCN(C(=O)c3cccnc3)CC2)cc1,-11,6,0,-6,4697,6,-0.8
CCN(CC)c1ccc(S(=O)(=O)N2CCCCC2)cc1NC(=O)C1=COCCO1,8,-2,9,0,?,6,4.8
COc1ccc(NC(=O)c2c(N)no[n+]2[O-])cc1,-4,-18,-2,7,4680,7,1.2
Cc1nc2c(-c3ccc(F)cc3)cnn2c2c1CCC2,-1,-42,7,-2,2009,1,5.3
C=CCn1c(SCc2ccc(Cl)cc2)nc2c1c(=O)[nH]c(=O)n2C,9,-18,/,/,2743,-1,0.8
Cc1ccnc(NC(=S)NC(=O)/C=C/c2ccco2)c1,17,-58,/,/,2789,9,-1.9
CCCn1cc(CN2CCc3ccc(NC(=O)C4CCCO4)cc3C2)c(C)n1 (stereo not given),1,-4,15,14,5260,7,1.0
Cc1ccc(C=Nn2c(COc3ccccc3)n[nH]c2=S)s1,/,/,18,11,/,-13,9.8
O=S(=O)(c1ccc(N2CCN(S(=O)(=O)c3ccc4c(c3)OCCO4)CC2)nc1)N1CCCC1,7,-10,4,9,4109,7,-1.9
COc1ccc(C2(c3ccc(OC)cc3)NC(=O)N(CC(=O)N(C)C)C2=O)cc1,8,-15,-2,-3,6277,-2,-1.8
Cc1cccc(C)c1NC(=O)C(=O)NCC1CCCN1S(=O)(=O)c1cccs1 (stereo not given),-1,-8,-4,7,9945,8,2.3
Cc1ccc(-c2ccc(SCC(=O)N3CCN(c4ccccc4)CC3)nn2)cc1,-6,-34,-6,-9,2248,3,-3.8
CCCCC[C@H](O)/C=C/C1=C(CCCCCCC(=O)O)C(=O)CC1,6,-8,/,/,5609,/,/
O=C(N/N=C/c1cccnc1)c1cccc(Br)c1,1,-8,/,/,4608,/,/
COCCNc1nnc(SC(C)C(=O)Nc2ccc(-c3nc4ccc(C)cc4s3)cc2)s1 (stereo not given),3,-80,4,2,2067,-7,-0.5
COc1ccc(C(=O)CSc2nc3cccnc3n2C)cc1,-3,-9,/,/,4651,4,-2.1
COc1cccc(NC(=O)CN(C)C(=O)CCNS(=O)(=O)c2ccc(C)cc2)c1,/,-10,7,1,4052,0,4.8
O=C(NCc1ccc(Cl)cc1)C(=O)NCC1OCCN1S(=O)(=O)c1ccc2c(c1)OCCO2 (stereo not given),12,-9,-11,-5,5331,1,2.0
O=C(Nc1ccccc1C(=O)O)c1cc(S(=O)(=O)NCc2ccccc2)ccc1Cl,-5,0,0,1,5729,4,5.2
O=C(COC(=O)Cc1ccsc1)NC1CCCCCC1,5,-18,13,2,3223,-7,5.9
CCN(CC)c1ccc(N=Cc2c(O)n(CCC3=CCCCC3)c(=O)[nH]c2=O)cc1,3,-14,-6,5,?,-4,5.8
CCC(=O)C1=C(N2CCCC2)CC(C)(C)CC1=O,2,-14,/,/,4596,-2,0.6
O=C(COC(=O)c1cc(-c2ccccc2Cl)nc2ccccc12)Nc1ncc(C(F)(F)F)cc1Cl,0,-9,14,1,2009,0,6.9
COc1ccc(N(CC(=O)Nc2ccc(C)c(C)c2)S(=O)(=O)c2c(C)n[nH]c2C)cc1,7,-4,-9,10,9227,8,-0.2
COc1cccc(NC(=S)NCc2cccnc2)c1,0,-9,5,2,1919,2,2.1
CS(=O)(=O)N(CC(=O)Nc1ccccc1C(=O)NCc1ccco1)c1ccc2c(c1)OCCO2,2,-28,4,11,23961*,-3,6.6

# Entries above that contain two or more sulfur atoms (8):
mol,BJeLR viability,PrP 5UTR inh,Mtb hypoxia rep,Mtb hypoxia rep growth,Autofluor counter,ugtP null kill,Sa RN4220 lethal
CCC(Sc1nccn1C)C(=O)Nc1nnc(C)s1 (stereo not given),-7,-20,3,5,5860,8,2.5
O=C(c1ccco1)N1CCN(c2nc3ccsc3c(=O)s2)CC1,-7,-24,/,/,5492,-2,0.3
CCc1ccc(S(=O)(=O)Nc2ccc(-c3nc4cccnc4s3)cc2)s1,-2,-55,4,8,5960,28,-3.2
Cc1cccc(NC(=O)C2CCCN(S(=O)(=O)c3cccc4nsnc34)C2)c1 (stereo not given),-1,-28,-2,7,9360,-4,1.3
Cc1ccc(C=Nn2c(COc3ccccc3)n[nH]c2=S)s1,/,/,18,11,/,-13,9.8
O=S(=O)(c1ccc(N2CCN(S(=O)(=O)c3ccc4c(c3)OCCO4)CC2)nc1)N1CCCC1,7,-10,4,9,4109,7,-1.9
Cc1cccc(C)c1NC(=O)C(=O)NCC1CCCN1S(=O)(=O)c1cccs1 (stereo not given),-1,-8,-4,7,9945,8,2.3
COCCNc1nnc(SC(C)C(=O)Nc2ccc(-c3nc4ccc(C)cc4s3)cc2)s1 (stereo not given),3,-80,4,2,2067,-7,-0.5

# Rows are unselected; any-hit rate near 4%.
